Screening data (PubChem)
RanGTP-Imp inh – disruptors of Ran-importin-beta complex formation – biochemical, FRET, CFP-Ran, YFP-importin-beta, homogeneous, primary screen; cell-free CFP-Ran/YFP-importin-beta FRET ratio; inhibition, % (concentration not given with the values); actives 1.1% (n = 300,000); AID 2216;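 active means most replicates above 15%; inconclusive means exactly half above 15%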;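 further: 0% = DMSO wells and 100% = Ran loaded with GDP instead of GTP; wells of about 40 µL received 100 nL stock; the first replicate is given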
Bfl-1 A1 inh – inhibitors of the anti-apoptotic protein A1, read as caspase activation; MEF A1-2A-BIM cells, Caspase-Glo 3/7 luminescence, 3 h; percent of clofoctol response, vehicle zero; caspase activation, % (test concentration not listed); actives 0.066% (n = 330,000);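 active means over half of replicate activation scores above 10%, or exactly half above 10 with the replicate mean above 10; inconclusive means replicate mean below 10 yet half the replicates above 10; inactive means over half of replicates below 10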;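 further: wells of about 30 µL received 50 nL stock; many hits fall short of the cut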
Vif TR-FRET – HIV-1 Vif–A3G interaction blockers – biochemical, TR-FRET, GST-Vif 1-94, biotin-A3G peptide, dose response retest, primary screen (AID 1117319); actives 0.57% (n = 260,000); inhibition, %; hits with a dose series show IC50 in µM; TR-FRET GST-Vif / biotin-A3G peptide binding; higher % means a stronger effect; test concentration not given here; strong numbers were not always called active;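 active means above the screen mean plus three standard deviations and confirmed in dose response; inconclusive means results disagree or hit not tested in dose response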;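 further: Vif residues 1-94 fused to GST binding biotinylated APOBEC3G peptide 110-148; 0% = full assay without inhibitor and 100% = GST in place of GST-Vif; retest series ran down from 100 µM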
LANA-H2B inh – blocks KSHV LANA binding to histone H2A/H2B. Q9QR71. cell-free LANA-H2A/H2B peptide, fluorescence polarization. inhibition, % (no concentration beside the values). actives 0.6% (n = 320,000); in the data active means inhibition mostly above about 10%, no sharp cut-off; inactive means mostly below about 6.7%;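 further: stock transfer was 7.5 nL into about 10 µL; 0% = median of vehicle wells and 100% = median of positive control wells; one replicate is shown; the record names a cut of 25% in any replicate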
Target sequence (Q9QR71 whole entry, looked up): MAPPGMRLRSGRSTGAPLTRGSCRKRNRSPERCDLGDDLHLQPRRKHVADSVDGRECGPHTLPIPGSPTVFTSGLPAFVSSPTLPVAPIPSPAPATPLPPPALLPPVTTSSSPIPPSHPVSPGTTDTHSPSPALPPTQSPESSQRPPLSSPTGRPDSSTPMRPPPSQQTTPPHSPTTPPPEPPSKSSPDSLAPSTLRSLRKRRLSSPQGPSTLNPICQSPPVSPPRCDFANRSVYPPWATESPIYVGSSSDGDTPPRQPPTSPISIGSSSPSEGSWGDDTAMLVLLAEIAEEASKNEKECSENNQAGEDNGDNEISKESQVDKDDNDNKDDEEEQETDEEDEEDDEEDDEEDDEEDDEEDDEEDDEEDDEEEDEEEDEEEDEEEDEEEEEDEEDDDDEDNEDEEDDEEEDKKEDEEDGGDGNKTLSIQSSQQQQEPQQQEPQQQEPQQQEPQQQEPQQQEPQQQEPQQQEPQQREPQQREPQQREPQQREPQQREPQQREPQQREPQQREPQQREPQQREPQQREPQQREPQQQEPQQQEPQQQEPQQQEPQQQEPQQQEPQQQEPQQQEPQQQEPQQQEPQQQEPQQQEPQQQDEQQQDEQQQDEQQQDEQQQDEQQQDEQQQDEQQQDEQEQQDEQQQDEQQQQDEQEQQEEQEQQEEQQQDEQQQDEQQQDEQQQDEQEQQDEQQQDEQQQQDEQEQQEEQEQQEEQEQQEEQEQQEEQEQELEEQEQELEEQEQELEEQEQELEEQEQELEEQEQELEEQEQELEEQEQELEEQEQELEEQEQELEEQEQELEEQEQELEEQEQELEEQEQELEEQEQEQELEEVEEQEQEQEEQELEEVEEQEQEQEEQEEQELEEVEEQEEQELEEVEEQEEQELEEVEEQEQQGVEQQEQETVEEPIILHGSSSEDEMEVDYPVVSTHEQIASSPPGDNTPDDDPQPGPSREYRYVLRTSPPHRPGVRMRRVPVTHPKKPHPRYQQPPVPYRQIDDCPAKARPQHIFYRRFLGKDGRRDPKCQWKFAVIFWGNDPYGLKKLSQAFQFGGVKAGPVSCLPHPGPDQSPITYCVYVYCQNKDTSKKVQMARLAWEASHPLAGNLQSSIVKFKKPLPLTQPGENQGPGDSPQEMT
T cruzi inh – blocks replication of Trypanosoma cruzi | T. cruzi beta-gal in NIH3T3, luminescence, 90 h | actives 1.4% (n = 300,000) | inhibition, % (concentration not given with the values) | AID 1885;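 active means mean inhibition across valid replicates above about 55%, limit read from the data; inconclusive means mean below that limit but half or more replicates reach it; inactive means mean below it, under half of replicates reach it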;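 further: signal also drops with host cell toxicity which is not excluded here; 0% = plate median of DMSO wells and 100% = zero luminescence signal; higher percent means less beta-gal luminescence so fewer parasites; stock transfer was 50 nL into about 50 µL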
Beta apoptosis – blocks beta cell apoptosis; actives 0.8% (n = 300,000); AID 435005; protection from apoptosis, % (no concentration beside the values); INS-1E cytokine-induced death, ATP luminescence, 48 h; percent of positive-control rescue, neutral wells zero;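 active means all replicates at 75% or more, or half of them and the mean; inconclusive means half reach 75% but not the mean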;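 further: 0% = cytokine-treated negative control wells and 100% = positive control rescue; higher means more ATP so stronger rescue from cytokine killing; wells of about 40 µL received 100 nL stock; the first replicate is given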
Calb FLC – affects C. albicans growth with fluconazole; actives 0.57% (n = 300,000); C. albicans CaCi-2 (fluconazole-resistant clinical isolate) + fluconazole, Alamar Blue growth, 48 h; growth inhibition, % (no concentration beside the values); AID 1979;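 active means most replicates above 75%; inconclusive means exactly half above 75%; inactive means most below 75%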;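 further: all wells also contain fluconazole at 8 µg/ml as a sub-toxic cotreatment; 0% = median of DMSO wells and 100% = median of geldanamycin control wells; wells of about 8 µL received 7.5 nL stock; the first replicate is given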
MLL AF4-AF9 inh – MLL-AF4/AF9 protein interaction inhibition | actives 0.47% (n = 350,000) | AID 651704 | AlphaScreen, biotin-AF4 peptide binding to FLAG-AF9 | inhibition, % at 10 µM | P42568;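 active means every replicate reaching a set inhibition limit, whatever the replicate mean, cut at about 25% in these data; inconclusive means mean inhibition reaches that limit but some replicates miss it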;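 further: 0% = plate neutral control median and 100% = total signal loss; the record names both 10 and 1 µM as test concentration; the first replicate is given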
* = called active by the depositor; ? = inconclusive; · = no result given; & = joins results of further samples.

no.	Molecule	RanGTP-Imp inh	Bfl-1 A1 inh	Vif TR-FRET	LANA-H2B inh	T cruzi inh	Beta apoptosis	Calb FLC	MLL AF4-AF9 inh
1	S=C(NCc1ccccc1)Nc1ccc(Oc2ccccc2)cc1	3.2	0.9	-9%	-1.9	10	2	-5	-1.7
2	COc1ccc(C(=O)C2CCCN(C(=O)Cn3nc(C)cc3C)C2)cc1F (stereo not drawn)	1.9	-0.5	?	2.8	-4	0	-4	-0.2
3	CC(C)c1ccccc1-n1c(SCC(=O)N2CCc3ccccc3C2)nc2ccccc2c1=O	1.9	-2.6	·	0.8	13	121*	29	-1.7
4	CC(C)COC(=S)Nc1ccccc1	-3.2	-0.1	2%	-6.5	-29	-10	3	·
5	Cc1ccc(C(=O)COC(=O)CN2C(=O)C3C4C=CC(C4)C3C2=O)cc1C (stereo not drawn)	0.3	-1.0	·	-1.1	-18	0	-5	-4.1
6	COC(=O)C(Cc1ccccc1)NC(=O)c1cc(S(=O)(=O)N(C)C)ccc1Cl (stereo not drawn)	5.2	0.2	15%	-0.1	-22	-1	-5	-0.1
7	Cc1cccc(CCN=c2c([N+](=O)[O-])nn(-c3ccccc3)n2O)c1	1.0	-0.7	11%	1.9	43	9	33	0.7
8	CC1CCCC(NC(=O)CN(C)S(=O)(=O)c2cnc[nH]2)C1C (stereo not drawn)	-2.3	-0.7	?	-0.9	-3	-9	6	0.5
9	Cc1ccccc1NC(=O)Nc1nc2ccc(S(C)(=O)=O)cc2s1	5.0	-0.4	·	1.5	-13	-5	-5	·
10	CCCCCC(=O)NN1C(=S)N(c2ccc(OC)cc2)C(=O)C1CC(=O)Nc1ccccc1 (stereo not drawn)	-1.9	1.3	1%	1.4	1	-3	4	-1.3
11	Cc1ccc(C(=O)c2sc3c(c2N)c(=O)[nH]c(=O)n3CCc2ccccc2)cc1	-0.6	0.0	·	4.3	34	-2	?	·
12	CC1CC(C)CN(C(=O)COC(=O)c2cncc(Br)c2)C1 (stereo not drawn)	·	0.4	·	1.7	·	-5	·	-3.0
13	CC(C)c1cc(C(=O)Nc2sc3c(c2C#N)CCC3)no1	8.6	0.3	16%	0.3	-19	7	63	-13
14	Cc1cc(C(=O)N/N=C/c2c(CO)cnc(C)c2O)c2ccccc2n1	5.7	1.1	·	-4.7	-23	-3	3	1.3
15	CC1CN(C(=O)c2ccc(NS(=O)(=O)c3ccc(F)c(F)c3)cc2)CC(C)O1 (stereo not drawn)	7.5	0.0	0%	0.9	-2	0	-4	1.3
16	O=C1CC(Nc2ccc(N3CCOCC3)cc2)C(=O)N1Cc1ccccc1 (stereo not drawn)	-2.1	-0.1	2.3µM*	-1.4	8	4	11	·
17	CCN(C(N)=S)c1ccccc1	-1.0	0.0	6%	5.8	-16	1	-9	·
18	CN1CCN(c2nc(-c3ccccc3)c3cc(Cl)ccc3n2)CC1	?	0.9	13%	5.5	52	-3	2	·
19	Cn1c(CN2CCN(C(=O)c3ccco3)CC2)nc2cc([N+](=O)[O-])ccc21	·	-0.4	·	1.4	5	-1	·	0.0
20	CCCSc1nnc(NC(=O)CSc2sc3c(O)cc(=O)[nH]c3c2C#N)s1	6.1	-0.3	·	3.1	-10	6	-8	-1.0
21	CCCN(CC(=O)Nc1ccccc1C)C(=O)/C=C/c1cccs1	-1.1	-0.7	-5%	·	-34	-6	5	8.3
22	Clc1ccc(-n2cccc2)cn1	4.3	1.9	·	-1.2	0	0	-6	-0.3
23	COc1cc(NC(=O)c2ccc(Cl)cc2)c(OC)cc1Cl	2.0	0.9	?	2.4	26	-2	16	·
24	O=C(C1CCCN(Cc2ccccc2[N+](=O)[O-])C1)N1CCCC1 (stereo not drawn)	1.3	-0.5	1%	3.8	-3	5	1	0.5
25	Cc1c(C(=O)N2CCCC2)c(S(=O)(=O)Nc2ccccc2Cl)c(C)n1C	?	0.8	-2%	-2.4	5	·	-2	2.6
26	CNC(=O)COc1ccc(C=O)cc1OC	-1.6	-0.2	-11%	·	-1	10	3	·
27	CCOC(=O)/C(C#N)=C\C1=C(N2CCOCC2)CC(C)(C)OC1	-5.4	0.7	1%	-5.3	5	2	-5	0.3
28	CC1(/[N+]([O-])=C/c2cccc(Cl)c2)CCCCC1=O (stereo not drawn)	6.6	1.1	-11%	-2.6	3	-3	-6	-4.3
29	N/C(=N\OC(=O)Nc1ccccc1)c1ccno1	-0.2	-0.5	?	1.7	-16	3	-12	1.3
30	COc1ccc(OCC(=O)C2CC2)c(C#N)c1	-0.3	-0.4	0%	3.8	-7	0	-1	-4.9

Part of the list above, reduced to Bfl-1 A1 inh:
cpd	SMILES	Bfl-1 A1 inh
22	Clc1ccc(-n2cccc2)cn1	1.9
23	COc1cc(NC(=O)c2ccc(Cl)cc2)c(OC)cc1Cl	0.9

Other records.
no.	Molecule	RanGTP-Imp inh	Bfl-1 A1 inh	Vif TR-FRET	LANA-H2B inh	T cruzi inh	Beta apoptosis	Calb FLC	MLL AF4-AF9 inh
31	CCC(=O)c1cc2c(C)cc(=O)oc2c(C)c1OC(C)=O	6.8	-0.3	-7%	3.9	8	2	?	·
32	CN(C)CCCN(C(=O)c1ccco1)c1nc2ccc(F)cc2s1	?	0.4	-4%	0.2	48	-6	-4	1.9
33	Cc1cc(C)c(/C([O-])=C(/C(=S)Nc2ccc(SC(F)F)cc2)[n+]2ccccc2)cc1C	-1.5	0.0	-3%	0.4	28	3	5	9.4
34	CC(C)Cn1c(-c2ccc(Br)o2)n[nH]c1=S	-0.1	0.3	-7%	0.4	18	·	-5	·
35	O=C(COc1ccc2c(-c3ccccc3)cc(=O)oc2c1)NCc1cccs1	1.5	0.2	14%	-3.6	12	2	33	-6.1
36	C[C@H](CO)N1C[C@H](C)[C@@H](CN(C)Cc2ccncc2)Oc2c(NC(=O)C3CC3)cccc2C1=O	·	-0.2	·	-0.5	·	-4	·	-6.6&2.6
37	OCCN1c2ccccc2CCc2ccccc21	2.9	0.6	·	-5.4	19	·	-1	-0.9
38	CCN1Cc2c(/C=C/c3ccccc3)nc3ccc(OC)cc3c2N(c2cccc(Cl)c2)C1	-28	-0.8	-7%	-1.5	52	41	-15	5.5
39	Cc1ccc(C(=O)NC2CC(C)(C)NC(C)(C)C2)cc1Cl	1.1	0.4	·	-1.2	25	-13	-7	0.5
40	COc1ccc(OC)c(C(c2nnnn2Cc2ccccc2)N2CCC(C(N)=O)CC2)c1 (stereo not drawn)	-2.4	0.3	0%	-1.0	-7	-3	-8	·

Some of the entries above, set out differently:
Values run as follows: RanGTP-Imp inh, Bfl-1 A1 inh, Vif TR-FRET, LANA-H2B inh, T cruzi inh, Beta apoptosis, Calb FLC, MLL AF4-AF9 inh
32) CN(C)CCCN(C(=O)c1ccco1)c1nc2ccc(F)cc2s1
→ ?, 0.4, -4%, 0.2, 48, -6, -4, 1.9
33) Cc1cc(C)c(/C([O-])=C(/C(=S)Nc2ccc(SC(F)F)cc2)[n+]2ccccc2)cc1C
→ -1.5, 0.0, -3%, 0.4, 28, 3, 5, 9.4

Additional entries
no.	Molecule	RanGTP-Imp inh	Bfl-1 A1 inh	Vif TR-FRET	LANA-H2B inh	T cruzi inh	Beta apoptosis	Calb FLC	MLL AF4-AF9 inh
41	CCn1c(CCNC(=O)c2ccccc2Cl)n[nH]c1=S	6.0	0.1	26%	3.6	-10	-5	8	·
42	Cc1ccc(SCC(=O)NC(=O)NCc2ccco2)c(C)c1	·	0.2	27%	1.3	-2	-12	4	·
43	COc1ccc(NC(=O)CSCC(=O)Nc2nnc(C)s2)cc1	0.4	0.3	-4%	3.7	1	·	-5	-1.3
44	COc1cccc(N2CCN(S(=O)(=O)c3ccc4c(c3)N(C(C)=O)CCO4)CC2)c1	?	-1.1	-2%	-4.7	9	2	0	-0.7
45	O=[N+]([O-])c1ccc(N2CCN(S(=O)(=O)c3ccccc3)CC2)c2cccnc12	4.3	0.2	-2%	-5.0	20	7	5	6.1
46	CCOc1ccc(CCNC(=O)COC(=O)Cn2cnc3ccccc3c2=O)cc1OCC	-1.1	-0.7	30%	-0.4	-10	4	-5	-1.5
47	COc1ccc(C)cc1S(=O)(=O)N1CCCC(C(=O)N2CCN(c3ccccc3F)CC2)C1 (stereo not drawn)	2.7	0.0	·	-1.1	20	10	-3	2.0
48	COc1ccc(CN2CC(C(=O)NCCc3ccccc3)CC2=O)cc1 (stereo not drawn)	-5.4	0.1	3%	-0.2	-3	2	-27	·
49	Cc1c(NC(=O)c2cnc(Cl)c(Cl)c2)c(=O)n(-c2ccccc2)n1C	4.2	-0.1	·	-2.6	0	1	-3	0.4
50	Cc1ccc(NS(=O)(=O)c2cccc(C(=O)N(C)Cc3cccs3)c2)cc1	-0.4	0.0	4%	4.1	8	0	2	-17
51	CCOC(=O)N1CCN(c2c(N3CCc4ccccc43)c(=O)c2=O)CC1	1.5	0.1	-2%	-2.2	1	-6	-6	-0.2
52	O=C(CCC(=O)Nc1ccccc1)NCCO	-1.1	0.3	-6%	-8.0	-8	-3	·	·
53	O=C(NNC(=S)NCc1ccccc1)c1ccc(Br)o1	-1.9	-0.9	-5%	-0.7	0	·	4	-4.2
54	Cc1cc(C)cc(N(CC(=O)N2CCN(Cc3ccccc3)CC2)S(=O)(=O)c2c(C)noc2C)c1	1.8	-0.3	5%	-1.7	8	-6	2	-2.3
55	CCOC(=O)c1ccccc1NC(=O)CN1CCC(n2nnc3cc(C(F)(F)F)ccc32)CC1	-3.4	0.7	2%	-4.9	8	0	0	6.9
56	C[C@H](CO)N1C[C@H](C)[C@@H](CN(C)S(=O)(=O)c2cccs2)Oc2ccc(NC(=O)Nc3ccc(C(F)(F)F)cc3)cc2C1=O	·	0.3	·	-0.8	·	6	·	1.6
57	CCS(=O)(=O)C1=NN2C(=N)/C(=C\c3ccc(OCCOc4cccc(OC)c4)c(OC)c3)C(=O)N=C2S1	6.9	0.0	14%	-1.0	-24	-1	10	4.8
58	CN(C1=NC(=O)CS1)c1ccc(O)cc1	4.9	-0.1	-1%	-15	-27	-4	?	-7.9
59	COc1cccc(-n2nnnc2SCC(=O)Nc2ccc3c(c2)OCCO3)c1	2.9	0.5	13%	0.8	14	-3	·	·
60	COCCNC(=O)c1ccc(CN2CCc3ccccc3C2)cc1	6.1	0.3	17%	-1.9	-2	2	0	-0.1
61	C/C(=N\NC(=O)c1cc2ccccc2cc1O)c1ccc2c(c1)OCO2	-4.0	-3.1	22%	-1.2	0	-1	-13	·
62	O=C(c1ccco1)N1CCN(c2ncnc3c(-c4ccc(Cl)cc4)nsc23)CC1	1.1	0.5	·	-0.5	6	-1	16	·
63	CCCCCCCc1nc2c(=O)n(C)c3ccccc3c2o1	?	-0.7	14%	0.4	0	-2	1	·
64	CCCCC(=O)Nc1ccc(Br)cc1C(=O)O	-0.8	0.2	6%	0.1	5	-1	-1	·
65	CC(C)(C)C1CCC(C(=O)Nc2nccs2)CC1 (stereo not drawn)	1.9	1.0	·	11	-9	4	-49	3.2
66	CN(CC(=O)Nc1ccc(Cl)c(C(F)(F)F)c1)C(=O)C1CC(=O)N(Cc2ccco2)C1 (stereo not drawn)	·	0.8	4%	-0.2	-17	-4	0	8.0
67	Oc1ccc(Br)cc1CNc1nccs1	4.3	0.4	·	-2.0	-12	7	0	-2.1
